TRPV1 potentiator: human TRPV1 potentiation; Q8NER1; TRPV1-expressing cells, Fluo-8 calcium influx, capsaicin EC20 potentiation; host cell line not named in the record; control for the full effect not named in the record; potentiation, % at 8.33 µM; actives 0.02% (n = 320,000); active means potentiation above 80%; inconclusive means 30% to 80%; inactive means below 30%; note: 0% is about no effect
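Cells expressing TRPV1 were dye-loaded with Fluo-8 and read kinetically: 10 s baseline, 3 min after compound (agonist portion), then 2 min after EC20 capsaicin (allosteric enhancer portion). Calcium-bound dye fluorescence at 480/520 nm.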
TRPML1 ag: activates the human TRPML1 channel | activation, % (no concentration beside the values) | Q9GZU1 | actives 0.12% (n = 410,000) | TRPML1-expressing cells, Ca2+ dye fluorescence, FDSS; host cell line not named in the record; reference of the full effect not given here | AID 624414; in the data active = activation above about 50%; inconclusive = about 30% to 50%; inactive = below about 30%; note: 0% is about no effect; the text of the record puts the active cut at 80%
Target sequence (Q9GZU1 whole entry, looked up): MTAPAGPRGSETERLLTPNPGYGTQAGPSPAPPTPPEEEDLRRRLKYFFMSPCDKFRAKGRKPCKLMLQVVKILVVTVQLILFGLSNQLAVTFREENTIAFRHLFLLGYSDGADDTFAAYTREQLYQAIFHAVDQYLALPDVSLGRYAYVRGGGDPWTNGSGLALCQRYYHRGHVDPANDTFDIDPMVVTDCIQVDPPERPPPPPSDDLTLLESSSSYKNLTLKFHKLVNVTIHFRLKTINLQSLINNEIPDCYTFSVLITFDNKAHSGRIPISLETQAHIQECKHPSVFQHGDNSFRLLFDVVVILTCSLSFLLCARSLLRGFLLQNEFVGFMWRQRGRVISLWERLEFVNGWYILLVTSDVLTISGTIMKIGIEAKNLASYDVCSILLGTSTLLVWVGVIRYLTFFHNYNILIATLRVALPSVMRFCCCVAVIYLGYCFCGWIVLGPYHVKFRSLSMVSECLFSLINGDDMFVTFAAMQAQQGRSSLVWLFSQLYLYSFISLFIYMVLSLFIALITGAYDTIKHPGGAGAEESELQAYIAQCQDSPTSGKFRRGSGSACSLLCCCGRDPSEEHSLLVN
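In this qHTS format, compounds were pin-transferred onto Ca8-dye-loaded TRPML1-DL cells induced with Tet overnight, and intracellular Ca2+ fluorescence was recorded kinetically for 110 s after a 10 s baseline. A subsequent 4uM final 54-4 (EC80) addition followed by a second 110 s read served as the antagonist phase.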
Sfp inh: inhibitors of Bacillus subtilis Sfp phosphopantetheinyl transferase | Q9F4F7 | Biochemical Sfp PPTase activity, qHTS | Potency, µM, inactives show max response, negative = inhibition, usual class: inhibitors | actives 3.5% (n = 310,000) | AID 1490; active = well fitted inhibition curve with a large enough effect; inconclusive = small, poorly fitted or top-dose-only effect, or another doubt; inactive = no such curve, though single readings can be large or run the other way;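 note: the enzyme is Sfp with the accession as filed and its product quenches rhodamine fluorescence; potency is the fitted concentration of half-maximal effect; 0% = enzyme reaction without inhibitor and -100% = no enzyme wells; top concentration of the series not given in the record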
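After 15 min at room temperature with compound, 15 nM Sfp received 5 uM rhodamine-CoA plus 12.5 uM BHQ-2-ybbR (50 mM Hepes pH 7.6, 10 mM MgCl2). Rate came from the fluorescence difference over 30 min, ex 525/em 598 nm.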
TRPML1 blocker: human mucolipin-1 channel inhibition | Q9GZU1 | TRPML1-inducible cells, Ca2+ dye fluorescence, FDSS; stronger effect = lower value; inhibition of EC80 agonist-evoked calcium signal | actives 0.02% (n = 390,000) | activity change, negative = inhibition, % (no concentration beside the values); in the data active means activity change below about -50%; inconclusive means about -30% to -50%; inactive means above about -30%;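 note: stimulus is agonist 54-4 at its EC80 concentration; % is set by controls: 0 for no effect and ±100 for the full control effect; compound concentration not given in the record; the text of the record puts the active cut at -80%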
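TRPML1-DL cells, Tet-induced overnight (~16 h, 37 °C) at 1,500 cells/well, were loaded with Ca8 no-wash dye plus quencher for 45-90 min at room temperature. Compounds were pinned during FDSS kinetic reading; agonist 54-4 at EC80 (4 uM final) then added.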
ClpP mod: qHTS Assay for Activators of ClpP; purified B. subtilis ClpP, FRET peptide cleavage, 20 min; actives 1.9% (n = 340,000); Potency, µM (series often up to 57.5 µM), for the others: at the top dose activity change, negative = active; ATP-dependent Clp protease proteolytic subunit (Bacillus subtilis (strain 168)), P80244; active = well fitted falling curve with a large enough effect; inconclusive = small, poorly fitted or top-dose-only effect; inactive = no such curve, though single readings can be large or run the other way; note: potency is the fitted concentration of half-maximal effect; the source files actives as falling curves though it sought activators and does not explain the sign; nearly all actives have a fitted effect of over 65% in size; many hits overshoot -100%
Target sequence (P80244 whole entry, looked up): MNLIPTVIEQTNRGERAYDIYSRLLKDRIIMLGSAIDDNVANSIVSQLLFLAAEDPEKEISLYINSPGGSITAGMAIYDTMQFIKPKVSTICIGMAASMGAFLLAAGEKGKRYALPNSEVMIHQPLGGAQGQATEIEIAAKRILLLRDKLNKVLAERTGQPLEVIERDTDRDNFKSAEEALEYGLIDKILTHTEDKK
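ClpP 10 microg/mL final, pH 8 Tris/KCl buffer with BSA, glycerol, Tween-20; compound pinned in; FRET-FV substrate; RT 20 min; Ex320/Em430; ΔFRET vs ADEP 5.8 microM, DMSO, no enzyme.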
PINK1 expr mod: PINK1 expression modulation. PINK1 immunofluorescence, high-content cytometry, 24 h. Potency, µM (top dose mostly 76.6 µM), inactives show at the top dose activation (PINK1 increase), usual class: activators. actives 0.2% (n = 410,000); active = well fitted activation curve with a large enough effect; inconclusive = small, poorly fitted or top-dose-only effect; inactive = flat fitted curve, though single readings scatter; cell line not stated here;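 note: potency is the fitted concentration of half-maximal effect; % of control where 0% means no effect; nearly all actives have a fitted effect of over 65% in size; a mitochondrial uncoupler was the plate control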
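Compound titrations (5 concentrations, 24 h) on a stable cell line; DMSO and CCCP controls. Endpoint: fixed-cell PINK1 immunofluorescence with mitochondrial, cell and nuclear markers, scanned by microplate cytometer.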
Menin MLL FP FL: menin-MLL binding inhibition, fluorescein peptide; AID 1766; FP activity change, % at 61.4 µM; 290,000 tested, under 10 active; Fluorescence polarization, fluorescein-MLL peptide displacement from menin; inconclusive = falling polarisation curve, or a change in total fluorescence; inactive = total fluorescence flat and polarisation flat or rising; no compound was filed as active; the % refers to the polarisation; negative = inhibition;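 note: % of control where 0% means no effect; inhibitors lower the polarisation; unlabelled MLL peptide was the positive control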
* marks the source's active call; other numbers are inactive results; ? = inconclusive; · = not tested or not shown; & = joins results of further samples; [ ] = another dose, or the depositor's remark.

SMILES	TRPV1 potentiator	TRPML1 ag	Sfp inh	TRPML1 blocker	ClpP mod	PINK1 expr mod	Menin MLL FP FL
COC(=O)[C@@H]1C[C@@H]2CC[C@@H](O)C[C@@H]2N1Cc1ccc(Cl)cc1	?	-0.1	12%&0%	2	-1.3%	0.0%	-4.0&5.5
CCOC(=O)Cc1ccc(NC(=O)Nc2ccccc2OCc2cc(=O)n3ccccc3n2)cc1	·	0.9	·	1	4.8%	12%	·
CC12CCC(=O)CC1CCC1C2CCC2(C)C1CCC2(O)C(=O)CO (configuration not stated)	·	0.9	·	10	-1.1%	1.9%	·
COc1ccc(Cl)cc1NC(=O)CN(C)C(=O)c1cn(-c2ccccc2)nc1-c1cccnc1	1	0.5	·	31	?	-1.3%	·
CCOC(=O)CNC(=O)N1CCc2ccc(NC(=O)c3ccccc3Cl)cc2C1	?	-0.1	3%	5	2.4%	3.9%	-0.6
CNC(=S)Nc1cccc(S(=O)(=O)NCc2ccco2)c1	·	0.5	·	-11	?	1.9%	·
CSCCC(NC(=O)c1ccccc1Cl)C(=O)NCCc1ccccn1 (configuration not stated)	·	-0.9	·	44	-0.5%	1.4%	·
O=C(NCCCCNC(=O)c1ccccc1F)c1ccccc1F	0	0.0	8%	-8	·	0.8%	3.2
Cc1ccc(Cn2nnc3c(=O)[nH]c(C4CCN(S(=O)(=O)c5ccc(F)cc5)CC4)nc32)cc1	-3	2.3	-11%	5	-1.2%	1.1%[38.3 µM]	0.2
CC(C)C[C@H](NC(=O)c1[nH]cnc1C(=O)N[C@@H](Cc1ccccc1)C(=O)OCc1ccccc1)C(=O)OCc1ccccc1	-6	0.2	17%	1	-5.6%	4.1%	3.8
O=C(CCC(=O)Nc1nnc(C2CCCCC2)s1)Nc1ccccc1	21	-0.3	5%	15	-0.4%	-0.4%	0.0
CC(=O)NC(C)C(c1cccs1)N1CCN(c2ccccc2)CC1 (configuration not stated)	-8	0.7	10%	11	-0.8%	4.2%[38.3 µM]	6.4
CCOc1ccc(-c2c(C(=O)N/N=C/c3ccc(O)cc3)nnn2-c2nonc2N)cc1	3	-0.4	23%	-3	·	7.5%	0.8
Cc1sc(N)nc1-c1cccc([N+](=O)[O-])c1	·	-1.0	·	·	-4.4%	-0.1%	·
CCC(C)NC(=O)c1csc2c1CCCCC2 (configuration not stated)	-17	1.4	3%	10	-3.1%	-0.2%	4.1
CC(C)N(C(=O)Cn1cc(S(=O)(=O)Cc2ccc(Cl)cc2)c2ccccc21)C(C)C	·	0.9	·	12	-0.3%	0.4%	·
O=C(Nc1ccc(S(=O)(=O)N2CCN(c3ccccc3)CC2)cc1)c1cccs1	0	1.1	-4%	-13	-9.3%	7.2%[38.3 µM]	-0.3
CCOC(=O)c1cc(NC(=O)Nc2nc3ccccc3s2)c(C)nc1C	?	0.5	-4%	-13	-2.3%	3.5%	3.7
O=C(c1c(Cl)nc2sccn12)N1CCN(c2cccc(Cl)c2)CC1	-18	1.5	-4%	28	0.0%	8.3%	-1.4
Cc1ccc(N(Cc2ccccc2)C(=O)CSC(C)C(=O)Nc2cc(C)on2)cc1 (configuration not stated)	·	0.9	·	24	0.7%	-0.9%	·
COc1ccccc1NC(=O)COc1ccc(C(=O)OCC(=O)N(C(C)C)C(C)C)cc1OC	-27	-0.2	-6%	18	0.5%	-1.2%	-1.8
O=C(NCc1ccccc1)c1cc(S(=O)(=O)N2CCC3(CC2)OCCO3)ccc1F	5	0.3	13%	-7	1.0%	-2.1%[38.3 µM]	5.0
CCc1ccccc1NC(=O)Cn1c(=O)n(-c2cccc(C)c2)c(=O)c2c1c1cc(OC)ccc1n2C	·	0.1	·	21	-24%	7.2%	·
O=C1c2cccnc2C(O)N1Cc1ccco1 (configuration not stated)	-9	0.6	4%	-7	-2.7%	3.2%	-5.7
C=CCN1C(=O)/C(=C2/Sc3ccc(OC)cc3N2C)SC1=Nc1cccc(O)c1	-4	-0.5	-7%	5	·	?	19
CCOC(=O)[C@H]1[C@H]2COc3ccc(Br)cc3[C@H]2N2C(=O)CN(Cc3ccc(Cl)cc3)C(=O)[C@@]12C	·	1.3	·	-11	-8.4%	2.3%	·
O=C1CC2(CCN(C(=O)c3cccc(F)c3)CC2)Oc2ccccc21	-9	-0.7	·	-13	·	-0.7%	·
CSC12CCCN(CCC(C(C)(C)C)C1)C2=O (configuration not stated)	·	-0.4	·	·	-2.7%	0.5%	·
COCC(=O)N1CCC2(CC1)CCN(C(=O)Nc1cccc(F)c1)CC2	·	·	13%	·	·	-0.1%	2.9
Cc1ccc(S(=O)(=O)N(C)C)cc1NC(=O)CSc1nc2ccccc2[nH]1	-5	0.5	9%	-2	-2.4%	-0.1%	5.1
COc1ccc([N+](=O)[O-])cc1NC(=O)CC1SC(=Nc2cccc(C)c2C)N(/N=C(\C)c2ccc(C)cc2)C1=O (configuration not stated)	6	1.1	7%	-3	-1.6%	2.0%	-0.7
COC(=O)c1cc(-c2ccccc2)c2c(=O)n(C)c(=O)n(C)c2n1	6	·	5%	·	·	·	-1.4
O=C1CC2C(CC(OC(=O)c3ccc(-c4ccccc4)cc3)C2CO)O1 (configuration not stated)	-12	-0.6	-13%	-4	?	3.2%	1.1
CCN(CC)CCCNC(=O)CSc1nc2nc(C)c(Cc3c(F)cccc3Cl)c(C)n2n1	·	-0.7	·	-20	-6.5%	0.3%	·
CCN(CC)CCN1C(=O)C(=O)/C(=C(/O)c2c(C)[nH]c(C(=O)OC)c2C)C1c1ccccc1OC (configuration not stated)	-2	-0.1	-7%	-18	-1.4%	3.6%	-0.8
Cc1ccccc1C(=O)NCCSc1ccccc1	-3	-0.8	10%	-3	-0.9%	2.1%	-0.4
O=S(=O)(c1ccccc1)N1CCN(Cc2cc3c(cc2Br)OCCO3)CC1	15	3.0	·	-4	-0.8%	2.1%	·
CCCOc1ccc(CN(C(=O)Cc2coc3ccc(CC)cc23)C2CCS(=O)(=O)C2)cc1 (configuration not stated)	·	1.4	·	-26	0.5%	-1.2%	·
CSc1nnc2c3c4c(sc3c(=O)n(-c3ccccc3)n12)CC(C)(C)OC4	5	0.3	8%	-12	-1.1%	0.5%	3.3
O=C(CN1CCN(Cc2ccccc2Cl)CC1)N/N=C/c1ccco1	7	0.0	8%	14	·	1.2%	2.3
COc1ccc(OC)c(CNc2ccc(F)c(Cl)c2)c1	19	2.3	3%	-12	-4.5%	8.2%[38.3 µM]	-0.3
CN(C)c1cccc(/C=C(\C#N)c2ccccc2)c1	-6	0.1	-6%	8	-0.1%	8.9%	3.7
CCOC(=O)C1CCN(C(=O)CSc2n[nH]c(-c3ccccc3)n2)CC1	·	0.4	·	38	1.4%	0.2%	·
Cc1c(Nc2c3c(c(C#N)c4nc5ccccc5n24)CCC3)c(=O)n(-c2ccccc2)n1C	2	·	4%	·	·	·	3.5
Cc1cccc(N2C(=O)c3cccc4c(N)ccc(c34)C2=O)c1	15	104*	3%	-10	·	1.8%	?
CCCn1nnnc1SCC(=O)Nc1cccc(NC(=O)c2ccco2)c1	-8	0.6	11%	8	-0.7%	0.3%	2.3
O=C(N/N=C\c1ccc(Cl)cc1Cl)c1sccc1-n1cccc1	-2	3.6	-10%	33	-1.8%	27%	0.9
O=c1ccn([C@@H]2O[C@H](CO)[C@@H](O)[C@H]2O)c(=O)[nH]1	-6	-0.6	32%[activator]	10	1.3%	0.7%	4.2&0.4
Nc1ncnc2c1ncn2[C@H]1C[C@H](O)[C@@H](CO)O1	4	-0.4	4%	·	0.1%&-3.3%	-1.1%&0.3%	-2.4
Cc1nc(-n2ncc(C#N)c2N)c2c3c(sc2n1)CCC3	2	-0.3	15%	-2	0.1%	3.9%	-2.7

(next part)
SMILES	TRPV1 potentiator	TRPML1 ag	Sfp inh	TRPML1 blocker	ClpP mod	PINK1 expr mod	Menin MLL FP FL
O=C(Nc1ccc(Cl)c(S(=O)(=O)N2CCOCC2)c1)c1ccccc1-c1ccc(C(F)(F)F)cc1	-5	0.3	3%	88	1.3%	-0.3%	0.9
CC(=O)Nc1cc(C)c(S(C)(=O)=O)c(C)c1	-2	1.0	2%	3	-1.7%	0.9%	5.5
C(#CC1CCCCC1)c1ccc2c(c1)COc1c3ccccc3nn1-2	-13	-0.8	8%	-8	2.0%	1.8%	3.5
CCOC(=O)c1c(C)[nH]c(C(=O)O)c1C	-10	0.4	-3%	19	-2.5%	-0.5%	-0.4
O=C(CC1CC2CCC1C2)NCc1cccs1 (configuration not stated)	11	-1.0	11%	-3	0.9%	-0.2%	-3.9
Cc1cc(C(=O)CCC(=O)N(C)CC(=O)Nc2c(Cl)cccc2Cl)c(C)s1	3	0.1	·	1	-1.2%	0.3%	·
O=C(CSc1nnc(-c2ccco2)c(-c2ccco2)n1)Nc1ccccc1	6	0.3	8.9µM*	-20	-1.0%	-1.6%	?
CCOC(=O)c1cccc(NC(=O)NCc2cccn2Cc2ccccc2)c1	·	1.8	·	-18	6.8%	0.9%	·
CCOn1c(=O)c(-c2ccc(Br)cc2)[n+]([O-])c2ccccc21	0	·	6%	·	-16%	7.5%	4.3
COc1cccc(-c2ccc(NC(=O)C3CCCN(Cc4ccc(CO)o4)C3)cc2)c1 (configuration not stated)	?	1.2	8%	-6	0.4%	5.0%	·
Cc1cc(C)c(NC(=O)CSc2nnc(CNC(=O)c3ccco3)o2)c(C)c1	?	-0.6	8%	-12	-0.7%	0.6%	·
COc1ccccc1Oc1coc2c(CN3CCOCC3)c(O)ccc2c1=O	-8	-0.1	21%	9	·	0.6%	1.8
Cc1nnc(NC(=O)CSc2n[nH]c(-c3ccccc3C)n2)s1	8	1.8	13%	-11	·	-2.4%	-4.7
Cc1ccc(NC(=O)/C(=C\c2ccc([N+](=O)[O-])cc2)NC(=O)c2ccccc2)cc1	·	-0.9	17%	2	2.0%	12%	-1.1
CCn1ccnc1CN(C)Cc1c(C(=O)N2CCCCCCC2)nc2ccc(Cl)cn12	3	0.5	13%	14	-0.8%	-0.5%	·

Source: PubChem BioAssay (National Center for Advancing Translational Sciences (NCATS))
